# HCMV UL50-53 inh: inhibitors of HCMV UL50-UL53 interaction, biochemical, HTRF | inhibition, % (test concentration not listed) | AID 1918969, 2023 | HCMV UL50-UL53 nuclear egress complex (human cytomegalovirus) | normalized percent inhibition | 190,000 tested, 0.15% active;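 active = both replicates at 50% or more, plus weaker picks with an unusually low signal ratio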;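 also: stock transfer was 100 nL into about 20 µL; 0% = negative control wells and 100% = wells with untagged competitor protein; inactives centre near -12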
# Sa growth inh: S. aureus growth inhibition at 42 and 30 °C, primary screen, LtaS inhibitor project, RN4220, two temperatures; relative growth, % (concentration not given with the values); OD600, 20 h, 42 °C; hits give low values; 170,000 tested, 0.53% active;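 active = growth at 42 °C up to 50% and 20 or more points under that at 30 °C, or under 10% at both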;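 also: 300 nL library stock went into each well; scaled to the means of positive and negative controls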
# GIV Gai3 FP: inhibitors of GIV peptide binding to Galpha-i3, primary screen, biochemical, fluorescence polarization, FITC-GIV GBA peptide, rat Galphai3; Guanine nucleotide-binding protein G(i) subunit alpha-3 (Rattus norvegicus), P08753; 90 min; hits give low values; scaled: aluminum fluoride 0%, vehicle 100%; percent of control (FP), % (test concentration not listed); 210,000 tested, 0.42% active;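 active = replicate mean at 85% of control or lower, very high polarization wells dropped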;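 also: wells of about 15 µL received 100 nL stock; the first replicate is given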
# Target sequence (P08753 whole entry, looked up): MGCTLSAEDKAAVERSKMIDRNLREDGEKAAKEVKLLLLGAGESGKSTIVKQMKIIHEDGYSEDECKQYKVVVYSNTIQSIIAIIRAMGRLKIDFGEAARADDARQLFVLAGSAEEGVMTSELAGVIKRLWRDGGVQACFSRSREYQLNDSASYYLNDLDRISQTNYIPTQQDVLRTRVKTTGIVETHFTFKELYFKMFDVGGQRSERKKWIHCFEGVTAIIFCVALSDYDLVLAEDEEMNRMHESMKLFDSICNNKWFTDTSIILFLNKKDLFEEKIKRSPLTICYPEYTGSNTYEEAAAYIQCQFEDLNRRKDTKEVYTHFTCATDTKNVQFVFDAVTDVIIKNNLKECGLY
# Sa growth inh second temp: recorded beside Sa growth inh, whose call it bears; relative growth, %; measured here: growth at 30 °C;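 optical density after 20 h as mean of two plates; 100% = untreated growth and lower means inhibition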
# The depositor's hits bear a star; · = no result given; & = joins results of further samples.
1: CN(C)S(=O)(=O)c1cc(S(=O)(=O)c2ccc(Cl)c(S(=O)(=O)N(C)C)c2)ccc1Cl
2: COc1cc(NC(=S)N(C)C)c(OC)cc1Cl
3: O=C(CN1C=NS(=O)(=O)c2ccccc21)Nc1ccc(Br)cc1
4: Cc1ccc2nc(Cn3cnc4ccccc43)cc(=O)n2c1
5: CNC(=O)c1cc(S(=O)(=O)N2CCCC2)ccc1Cl
6: CC(=O)Nc1ccc(NC(=O)c2ccc(NC(C)=O)cc2)cc1
7: CC(C)(C)NS(=O)(=O)c1cc(C(=O)Nc2nccs2)ccc1Cl
8: COc1ccc(-c2cc(C(=O)Nc3cccc4cccnc34)c3ccccc3n2)cc1
9: CCOc1ccc(N2CC(NC(=O)c3ccc(S(=O)(=O)N4CCCCC4)cc3)CC2=O)cc1 (stereo not drawn)
10: COc1cccc(N2C(=O)CC(n3nc(Nc4cccc(C)c4)sc3=S)C2=O)c1 (stereo not drawn)

assay / entry	1	2	3	4	5	6	7	8	9	10
GIV Gai3 FP	·	107.9	107.4&104.5	·	105.5	·	·	98.6	97.9	·
Sa growth inh	102.8	106.4	134.3	101.7	102.2	95.5	95.9	·	112.8	42.0
Sa growth inh second temp	97.1	85.6	91.5	99.9	101.3	91.7	50.2	·	82.7	33.0
HCMV UL50-53 inh	-4.3	-35.9	·	-70.5	-17.3	16.0	-15.0	9.1	·	-7.5

11: COc1ccc(C2CC(=O)C3=C(C2)Nc2onc(C)c2C3CC(C)C)cc1 (stereo not drawn)
12: COC(=O)CNS(=O)(=O)c1ccsc1C(=O)OC
13: O=c1oc2ccccc2n1CCc1nnc(-c2cccc(Cl)c2)o1
14: Cc1csc(=O)n1CCC(=O)OCc1cc2ccccc2nc1Cl
15: Cc1ccc(NC(=O)C23CC4CC(CC(C4)C2)C3)cc1
16: Cc1cc(=O)c2ccccc2n1CC(N)=O
17: C=CCn1c(=O)c2ccc(C(=O)NC(C)C)cc2n2c(=O)n(CC(=O)NC(C)CC)nc12 (stereo not drawn)
18: COCCOC(=O)c1c(C)n(S(=O)(=O)c2ccc(C)cc2)c2ccc(NS(=O)(=O)c3ccc(C)cc3)cc12
19: CC(=O)N1CCOc2cc(S(=O)(=O)N3CCN(c4ccccc4)CC3)c(Cl)cc21
20: CCN1CCN(c2nc3c(S(=O)(=O)c4ccc(C)cc4)nnn3c3ccsc23)CC1

assay / entry	11	12	13	14	15	16	17	18	19	20
GIV Gai3 FP	112.5	102.0	107.2	·	98.6	101.4	104.5	106.1	109.2	101.8
Sa growth inh	·	115.1	92.0	80.6	119.7	98.7	·	104.1	·	67.5
Sa growth inh second temp	·	94.4	107.7	82.6	95.2	94.2	·	83.6	·	79.3
HCMV UL50-53 inh	-6.8	-14.3	1.4	7.5	·	-34.9	-17.7	-11.8	-6.1	·

21: CCn1c(SCC(=O)Nc2c(C)cccc2C)nnc1-c1nonc1NC(C)=O
22: CCn1c(=O)c2cc(S(N)(=O)=O)ccc2n(CC)c1=O
23: COc1cc(C=C2C(=O)N(C)C(=O)N(C)C2=O)ccc1OCc1ccc(Cl)cc1
24: Cc1nc(SCc2noc(CSc3nc(C)c(C)c(C)c3C#N)n2)c(C#N)c(C)c1C
25: COc1cc(-c2noc(-c3scc(-c4cccc(C)c4)c3-n3cccc3)n2)ccc1OC(C)C
26: COC(=O)c1ccc(NC(=O)Cn2c(-c3nonc3N)nc3ccccc32)cc1
27: Cc1ccccc1NC(=O)c1ccc(CNS(=O)(=O)c2ccc3c(c2)C(C)(C)C(=O)N3C)cc1
28: CN(CC(=O)Nc1cc(C(F)(F)F)ccc1N1CCOCC1)S(=O)(=O)c1ccc(Cl)cc1
29: c1ccc(Cc2nc3c4c5c(sc4ncn3n2)CCCC5)cc1
30: Cc1cn2c(=O)c(S(=O)(=O)Nc3ccc(OC(F)(F)F)cc3)c(C)nc2s1

assay / entry	21	22	23	24	25	26	27	28	29	30
GIV Gai3 FP	106.7	103.6	107.3	·	101.9	108.6	100.6	·	99.6&95.1	107.6
Sa growth inh	110.5	94.5	·	104.5	·	107.5	95.7	92.1	122.3	91.5
Sa growth inh second temp	88.0	98.8	·	66.4	·	98.5	87.5	98.0	83.1	72.7
HCMV UL50-53 inh	29.2	-20.1	-17.4	12.7	4.4	-12.6	·	-3.0	-8.7	·

31: CCOC(=O)c1cccc(NC(=O)CC2C(=O)N(c3ccccc3)C(=O)N2Cc2ccco2)c1 (stereo not drawn)
32: CCc1ccc(OCC(=O)OCC(=O)N2CCc3ccccc32)cc1
33: COCCCn1c2c(c(SCc3ccccc3F)nc1=O)CCC2
34: CC(=O)N1CCC(N(Cc2cccnc2)C(=O)Nc2ccc(Cl)cc2)CC1
35: COc1ccc(C2CC(c3ccccc3)=NN2C(=O)CSc2nnc(-c3cccnc3)n2N)cc1 (stereo not drawn)
36: Cc1c2c(=O)n(-c3nc4ccccc4s3)nc-2cc(O)n1CCc1cnc[nH]1
37: C=CCNS(=O)(=O)c1cccc2cc(C(=O)O)c(O)cc12
38: CC(C)(C)C(=O)Nc1ccc2nc(SCCOc3ccccc3Cl)sc2c1
39: Cc1cccc2c1cnn2C(=O)Nc1cccc(Cl)c1
40: COc1ccc(Nc2nc3ccc(C)cc3nc2-n2nc(C)cc2C)cc1Cl

assay / entry	31	32	33	34	35	36	37	38	39	40
GIV Gai3 FP	100.0	·	107.4	99.6	·	105.2	·	104.9	106.9	102.2
Sa growth inh	89.0	98.2	·	84.5	85.3	·	98.2	102.3	·	110.6
Sa growth inh second temp	76.0	91.4	·	82.0	88.3	·	96.3	85.8	·	89.3
HCMV UL50-53 inh	·	-23.2	-9.3	-24.2	-11.1	-76.0	-22.5	14.7	-22.0	-7.5

# In the list so far, four contain a thiophene ring, fused or not.
12: COC(=O)CNS(=O)(=O)c1ccsc1C(=O)OC
20: CCN1CCN(c2nc3c(S(=O)(=O)c4ccc(C)cc4)nnn3c3ccsc23)CC1
25: COc1cc(-c2noc(-c3scc(-c4cccc(C)c4)c3-n3cccc3)n2)ccc1OC(C)C
29: c1ccc(Cc2nc3c4c5c(sc4ncn3n2)CCCC5)cc1

assay / entry	12	20	25	29
GIV Gai3 FP	102.0	101.8	101.9	99.6&95.1
Sa growth inh	115.1	67.5	·	122.3
Sa growth inh second temp	94.4	79.3	·	83.1
HCMV UL50-53 inh	-14.3	·	4.4	-8.7

# The list continues:
41: COc1ccc(OCC(O)CNS(=O)(=O)c2ccccc2)cc1 (stereo not drawn)
42: Nc1nc(SCc2ccc([N+](=O)[O-])cc2)c2ncn([C@@H]3O[C@H](CO)[C@H](O)C3O)c2n1 (stereo partly drawn)
43: C=CCN(C1CCCCC1)S(=O)(=O)c1ccc2c(c1)oc(=O)n2C
44: CCOC(=O)N1CCC(NC(=O)c2cnn(-c3cccc(F)c3)c2-n2cccc2)CC1

assay / entry	41	42	43	44
GIV Gai3 FP	105.5	106.9	112.4	97.6
Sa growth inh	92.4	·	110.0	77.1
Sa growth inh second temp	89.3	·	97.0	91.2
HCMV UL50-53 inh	-9.0	-136.1	·	·

# Two entries from above, with each value named:
42) Nc1nc(SCc2ccc([N+](=O)[O-])cc2)c2ncn([C@@H]3O[C@H](CO)[C@H](O)C3O)c2n1 (stereo partly drawn)
  GIV Gai3 FP: 106.9
  Sa growth inh: ·
  Sa growth inh second temp: ·
  HCMV UL50-53 inh: -136.1
43) C=CCN(C1CCCCC1)S(=O)(=O)c1ccc2c(c1)oc(=O)n2C
  GIV Gai3 FP: 112.4
  Sa growth inh: 110.0
  Sa growth inh second temp: 97.0
  HCMV UL50-53 inh: ·
